BasE inh = BasE siderophore biosynthesis inhibition | purified BasE, fluorescence polarization binding displacement | inhibition, % (no concentration beside the values) | 84,000 tested, 0.1% active | AID 485350;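 active = both replicates above 25% with normal brightness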;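 also: 0% = negative plate control signal and 100% = positive plate control signal; stock transfer was 100 nL into about 30 µL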
LANA-nucl inh = LANA-nucleosome interaction inhibition; z-score (concentration not given with the values); 51,000 tested, 0.3% active; FITC-LANA1-23 / chicken nucleosome fluorescence polarization; stronger effect = lower value;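 active = both repeat wells score below -2 in polarization z-score versus plate sample wells, excluding overly bright wells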;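 also: 100 nL library stock added to about 30 µL; numbers are from one replicate; some results filed as inactive read as strong as hits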
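Assay system: purified chicken nucleosomes with FITC-labelled LANA N-terminal peptide (1-23) / Probe or stimulus: 50 nM FITC-LANA1-23 probe / Compound dosing: pin-transferred compound, 100 nL / Times: compound with peptide–nucleosome mix 10–45 min at room temperature / Technique: fluorescence polarization, 480 nm excitation, 535 nm parallel and perpendicular emission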
The depositor's hits bear a star; & = joins results of further samples. This is a subset, so the mix of outcomes need not match the whole.

Cc1cc(C(F)(F)F)c(C#N)c(SCC(=O)C(C)(C)C)n1 was read as BasE inh -0.5 and LANA-nucl inh -0.31.
`COc1cc(NC(=O)c2ccc(Br)o2)c(C(=O)O)cc1OC` gave BasE inh -1.4 and LANA-nucl inh 0.16.
For O=C(COc1ccccc1)N=Nc1c(O)[nH]c2ccccc12 the results were BasE inh 1.9 and LANA-nucl inh -1.3.
For Cc1ccc(NC(=O)c2ccc(Br)o2)cc1C the results were BasE inh -3.3 and LANA-nucl inh 0.55.
`COc1cc(C2N(C(C)=O)N=C(NC(C)=O)N2C(C)=O)cc(OC)c1OC` (stereo unspecified) gave BasE inh 0.5 and LANA-nucl inh 0.34.
Screening COC(=O)Cn1ncc(N2CC(C)OC(C)C2)c(Cl)c1=O (stereo unspecified) returned BasE inh 2.6.
For CC(C)NC(=O)c1cc(C(=O)c2cc(Br)ccc2O)coc1=N the results were BasE inh -3.4.
O=C(c1cn(-c2ccccc2)nc1-c1cccc(Cl)c1)N1CCOCC1 was read as BasE inh -1.8 and LANA-nucl inh 2.5.
COC(=O)c1ccc2c(=O)n(CCCCCC(=O)NC3CCCCC3)c(=O)[nH]c2c1 was read as BasE inh 0.6 and LANA-nucl inh -0.79.
Screening Cc1ccc(C(CC(=O)O)c2ccccc2)c(O)c1 (stereo unspecified) returned BasE inh 2.1 and LANA-nucl inh 0.53.
Screening O=C(Nc1nc2ccccc2[nH]1)Nc1ccccc1F returned BasE inh 14.
COc1cc2c(cc1NC(=O)Cc1ccccc1)oc1ccccc12 was read as BasE inh 2.3.
`O=C(O)CC(C1CC=CCC1)N1Cc2ccccc2C1=O` (stereo unspecified) gave LANA-nucl inh -0.56.
CCOC(=O)Cn1c(=O)oc2cc(S(=O)(=O)NCCOC)ccc21 was read as BasE inh -0.3 and LANA-nucl inh -0.35.
For COc1cc(OC)cc(C(=O)Nc2ncn[nH]2)c1 the results were BasE inh -1.2 and LANA-nucl inh 0.17.
For COCCNC(=O)c1ccc2c(c1)sc1nc(-c3ccccc3)cn12 the results were BasE inh -2.1 and LANA-nucl inh -0.26.
For CC1(c2ccccc2)OC(=O)C(=Cc2ccc(O)cc2)C(=O)O1 (stereo unspecified) the results were BasE inh 2.9 and LANA-nucl inh -0.67.
`Nn1c(SCc2ccccc2Cl)nnc(CCC(=O)O)c1=O` gave BasE inh 1.1 and LANA-nucl inh 0.97.
Screening CC(C)C(NC(=O)c1ccccc1)C(=O)NCc1ccccn1 (stereo unspecified) returned BasE inh 0.6.
Screening CCSc1cc(C)c(C#N)c2nc3ccccc3n12 returned BasE inh -0.8 and LANA-nucl inh -0.73.
For CC1Oc2ccccc2OC1C(=O)Nc1ccccc1 (stereo unspecified) the results were BasE inh 1.7 and LANA-nucl inh -0.97.
Screening CC(C)C(Nc1ccccc1)N1C(=O)CCC1=O (stereo unspecified) returned BasE inh 0.1 and LANA-nucl inh -0.22.
For Nc1c(C(=O)N2CCCCC2)sc2nc3c(cc12)CCC3 the results were BasE inh -0.7.
c1ccc2sc(-c3ccc4c(c3)OCCO4)nc2c1 was read as BasE inh -3.8.
`CC1CC(=O)Nc2ccccc2N1C(=O)c1ccc(F)cc1F` (stereo unspecified) gave BasE inh 0.1 and LANA-nucl inh 0.26.
For COC(=O)c1sc(S(C)=O)c(-c2ccon2)c1C (stereo unspecified) the results were BasE inh 1.9 and LANA-nucl inh -0.052.
Screening CC1(C)C(=O)OC(/C=C\c2ccccc2)C(C)(C)C1=O (stereo unspecified) returned BasE inh 3.6 and LANA-nucl inh 0.67.
Screening O=C(Nc1cccnc1)c1ccc2c(c1)[nH]c(=O)n2CCc1ccccc1 returned BasE inh 4.2 and LANA-nucl inh 0.12.
CCN(c1ccccc1)C1SC(=O)N(c2ccccc2)C1=O (stereo unspecified) was read as BasE inh 0.2 and LANA-nucl inh -0.33.
For CCOC(=O)c1nnn2c3ccccc3c(=O)n(Cc3ccc(Cl)cc3)c12 the results were BasE inh 2.1.
Screening COc1ccccc1C1=NC(c2ccccc2)CN1c1ccccc1 (stereo unspecified) returned BasE inh 0.1.
`O=S(=O)(NC1CCCC1)c1ccc(S(=O)(=O)N2CCN(c3ncccn3)CC2)cc1` gave BasE inh 1.9 and LANA-nucl inh -0.95.
Screening Cc1cc(-c2ccccc2)[nH]c(=O)c1S(=O)(=O)c1ccccc1 returned LANA-nucl inh -0.37.
N#CCNC(=O)C(Sc1ccccc1)c1ccccc1 (stereo unspecified) was read as BasE inh 1.8 and LANA-nucl inh 0.32.
`CC(Nc1ccc(Oc2ccccc2)cc1)C(=O)N1CCCC1` (stereo unspecified) gave BasE inh 0.0.
Screening COC(=O)Cc1c(C)c2ccc(OCC(=O)N(C)C)c(C)c2oc1=O returned BasE inh 3.2 and LANA-nucl inh -0.71.
`Nn1cnc2sccc2c1=O` gave BasE inh 1.5.
COC(=O)C1C(=O)C2=C(CC1C)NC(=O)CC2c1cccc(C)c1 (stereo unspecified) was read as BasE inh 0.2 and LANA-nucl inh 0.28.
`COc1cccc(CN2COc3ccc4c(C)cc(=O)oc4c3C2)c1` gave BasE inh -0.3 and LANA-nucl inh 0.15.
For Cc1noc(C)c1CN1CCC(c2nc3ccccc3s2)CC1 the results were BasE inh -1.0.
Screening Cc1nc(CC(=O)OCc2nnc(-c3c(-c4ccccc4)noc3C)o2)cs1 returned BasE inh -1.4.
Cc1nc(SCC(=O)N2c3ccccc3CCc3ccccc32)n[nH]1 was read as BasE inh -4.3 and LANA-nucl inh 2.1.
`CCOc1ccc2ccccc2c1CNc1nnnn1CC` gave BasE inh -3.3 and LANA-nucl inh 0.91.
Screening Nc1cccc(Cl)c1O returned BasE inh 1.9 and LANA-nucl inh 0.38.
C=CCOn1c(=O)c(-c2ccc(OC)c(OC)c2)[n+]([O-])c2ccccc21 was read as BasE inh 7.7 and LANA-nucl inh -0.075.
`COc1ccc(C2c3sc(=O)[nH]c3SCC2/C=N/NC(N)=S)cc1` (stereo unspecified) gave BasE inh -2.4.
CC1CCN(C(=O)c2cccc3c2-c2ccccc2C3=O)CC1 was read as BasE inh 2.1 and LANA-nucl inh 0.52.
Screening O=C(COc1ccc(Nc2ccccc2)cc1)OCC(=O)N1CCCCC1 returned BasE inh 2.9.
Cc1cc(C(=O)COc2ccc(-c3nnco3)cc2)c(C)n1-c1ccc2c(c1)OCCO2 was read as BasE inh 3.4.
Fc1ccccc1OCCCCSc1ncccn1 was read as BasE inh 2.9 and LANA-nucl inh -0.69.
Screening Cc1ccc(N(C)S(=O)(=O)c2ccc(-c3cc(C(F)(F)F)no3)s2)cc1 returned BasE inh 2.8.
`N#CCSc1nc2cc(Cl)ccc2c(=O)n1Cc1ccccc1` gave BasE inh 1.3.
Screening CN(Cc1ccccc1)C(=O)COC(=O)c1ccc(S(=O)(=O)N(C)C)cc1 returned BasE inh 0.5.
Screening CCN(CC)S(=O)(=O)c1ccc2oc(=S)n(CN3CCCCC3)c2c1 returned BasE inh 0.7.
COc1ccc(C(=O)COC(=O)CN2C(=O)C3CC=CCC3C2=O)cc1 (stereo unspecified) was read as BasE inh -3.0.
CNS(=O)(=O)c1cc(O)c2c(S(=O)(=O)NC)cccc2c1 was read as BasE inh 1.4 and LANA-nucl inh -0.41.
For O=C1CN(C(=O)CSc2nnc(Cc3cccs3)n2CCc2ccccc2)c2ccccc2N1 the results were BasE inh 0.2.
Screening N#CCOC(=O)c1cccnc1SCC#N returned BasE inh 5.9.
`O=C(c1cnoc1)c1ccccc1O` gave BasE inh 2.5.
For CCN(CC)c1ccc2cc(C(N)=O)c(=Nc3ccc(F)cc3)oc2c1 the results were BasE inh -0.6.
For CC1CCCCN1S(=O)(=O)c1ccc(C(=O)Nc2nnc(-c3cccs3)o2)cc1 (stereo unspecified) the results were BasE inh -0.4 and LANA-nucl inh 0.72.
For O=C(O)CCCn1c(C(F)(F)F)nc2ccccc21 the results were BasE inh 0.1 and LANA-nucl inh 0.3.
For CN(C)c1ccc(/C=N/NC(=O)C2=CCN(Cc3ccccc3)CC2)cc1 the results were BasE inh 0.1 and LANA-nucl inh -0.49.
For C=CCN(CC=C)C(=O)c1ccc(NC(=O)CC)cc1 the results were BasE inh 5.1 and LANA-nucl inh -0.99.
Screening Cc1cc(C(=O)COC(=O)c2ccc3c(c2)NC(=O)CS3)c(C)n1Cc1cccs1 returned BasE inh 0.3.
`CC1Sc2ccc(C(=O)N(C)Cc3cccnc3)cc2NC1=O` (stereo unspecified) gave BasE inh 1.0.
Screening CC(C)(C)NC(=O)CN1CCN(C(=S)Nc2ccccc2F)CC1 returned BasE inh 1.2.
Cc1ccc(Cl)c(Nc2ccccc2C(=O)O)c1Cl was read as BasE inh 1.6 and LANA-nucl inh 0.21&0.23.
For CN(C)S(=O)(=O)c1ccc(C(=O)OCC(=O)C(C)(C)C)cc1 the results were BasE inh 2.4.
N#Cc1c(Nc2ccccc2Cl)s[nH]c1=O was read as BasE inh 2.4 and LANA-nucl inh -0.87.
For COc1cccc(CN2CCc3nc(N4CCOCC4)ncc3C2)c1 the results were BasE inh -2.6 and LANA-nucl inh 0.35.
O=C(CCCc1ccccc1)N/N=C/c1ccc(O)cc1O was read as BasE inh 1.5 and LANA-nucl inh -0.64.
`O=C(O)CCC(=O)Nc1ccc(S(=O)(=O)Nc2nccs2)cc1` gave BasE inh -1.6&1.6 and LANA-nucl inh -0.2&0.46&-0.36.
`Cc1ccccc1Nc1nc(N)nc(COC(=O)Cc2c[nH]c3ccccc23)n1` gave BasE inh -3.9.
O=c1cnc2ccccc2n1Cc1cc(=O)n2ccsc2n1 was read as BasE inh 1.4.
`CC(C)(C)NC(=O)Cn1cnc2c(cnn2-c2ccccc2)c1=O` gave BasE inh -1.2 and LANA-nucl inh 0.7.
For Cc1csc(=N)n1CC(=O)N1CCc2ccccc21 the results were BasE inh -1.1.
Screening Cc1nnc(C)c2c(C)n(-c3ccc4c(c3)OCO4)c(C)c12 returned BasE inh -1.9 and LANA-nucl inh -0.65.
O=C1c2ccccc2C(=O)N1CSc1nnc(-c2cccs2)o1 was read as BasE inh 1.2.
`CNc1nc(=S)[nH]c2ccccc12` gave BasE inh 1.2.
Screening Cc1oc(-c2ccccc2)nc1C(=O)N(C)CC(=O)Nc1ccc(N2CCOCC2)cc1 returned BasE inh -0.8.
For CC(=O)Oc1cc2c(C(=O)NCCCN3CCOCC3)c(C)oc2c2ccccc12 the results were BasE inh -3.0 and LANA-nucl inh 0.46.
For CN(C)C(=O)CSc1ccc(-c2ccc(F)cc2)nn1 the results were BasE inh -0.4 and LANA-nucl inh -1.6.
For COCCn1c(C)nnc1SCC1CCCO1 (stereo unspecified) the results were BasE inh -3.1 and LANA-nucl inh 0.18.
O=C(O)C12C3CCC4C5C3C1C5(C(=O)O)C42 (stereo unspecified) was read as BasE inh -0.8.
For O=C(c1ccco1)c1cn(CC(=O)N2CCc3ccccc32)c2ccccc12 the results were BasE inh -2.1 and LANA-nucl inh 0.28.
For O=S(=O)(NC1CCCc2ccccc21)c1ccc2c(c1)OCCO2 (stereo unspecified) the results were BasE inh -0.2.
For CN(Cc1cccs1)C(=O)CSc1nnc(-c2ccccc2)n1-c1ccccc1 the results were BasE inh 0.7.
O=C(CSc1ccccc1C(=O)O)c1ccccc1 was read as BasE inh 0.8 and LANA-nucl inh -0.26.
For C=CCn1c(-c2ccccc2Cl)nn(CCC#N)c1=S the results were BasE inh -0.3.
`O=C(Nc1ccccc1)Nc1ccccc1C(=O)NCC1CC1` gave BasE inh 2.0.
Screening O=C(c1ccccc1)c1ccc(C(=O)O)c(C(=O)O)c1 returned BasE inh -2.4 and LANA-nucl inh 1.9.
`O=C(NN=C1CCCC1)c1ccccc1O` gave BasE inh 7.3 and LANA-nucl inh -1.1.
C=CCn1c(O)c(CN2CCN(Cc3ccccc3)CC2)c(C)c(C#N)c1=O was read as BasE inh 2.4 and LANA-nucl inh 0.4.
CCCCCCN1C(=O)NC(c2ccccc2)C1=O (stereo unspecified) was read as BasE inh -0.9 and LANA-nucl inh 0.63.
For O=C(NCCc1c[nH]c2ccccc12)C1Cc2ccccc2CN1C(=O)c1ccco1 (stereo unspecified) the results were BasE inh -0.5.

In the list so far, these have a COOH group.
`COc1cc(NC(=O)c2ccc(Br)o2)c(C(=O)O)cc1OC` gave BasE inh -1.4 and LANA-nucl inh 0.16.
Screening Cc1ccc(C(CC(=O)O)c2ccccc2)c(O)c1 (stereo unspecified) returned BasE inh 2.1 and LANA-nucl inh 0.53.
`O=C(O)CC(C1CC=CCC1)N1Cc2ccccc2C1=O` (stereo unspecified) gave LANA-nucl inh -0.56.
`Nn1c(SCc2ccccc2Cl)nnc(CCC(=O)O)c1=O` gave BasE inh 1.1 and LANA-nucl inh 0.97.
For O=C(O)CCCn1c(C(F)(F)F)nc2ccccc21 the results were BasE inh 0.1 and LANA-nucl inh 0.3.
Cc1ccc(Cl)c(Nc2ccccc2C(=O)O)c1Cl was read as BasE inh 1.6 and LANA-nucl inh 0.21&0.23.
`O=C(O)CCC(=O)Nc1ccc(S(=O)(=O)Nc2nccs2)cc1` gave BasE inh -1.6&1.6 and LANA-nucl inh -0.2&0.46&-0.36.
O=C(O)C12C3CCC4C5C3C1C5(C(=O)O)C42 (stereo unspecified) was read as BasE inh -0.8.
O=C(CSc1ccccc1C(=O)O)c1ccccc1 was read as BasE inh 0.8 and LANA-nucl inh -0.26.
Screening O=C(c1ccccc1)c1ccc(C(=O)O)c(C(=O)O)c1 returned BasE inh -2.4 and LANA-nucl inh 1.9.

From PubChem BioAssay
